# RecA intein inh: Mtb RecA intein splicing inhibitors, primary screen, biochemical, fluorescence, HTS. Protein RecA (Mycobacterium tuberculosis (strain ATCC 25618 / H37Rv)), P9WHJ3. cell-free RecA intein splicing. inhibition, %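 (about 9 µM by stock and volumes)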. 0.75% of 290,000 active; in the data active means inhibition above about 30%; inconclusive means no clear call, values can overlap the other calls;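 further: 0% = vehicle wells and 100% = reference inhibitor control wells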
# Target sequence (P9WHJ3 whole entry, looked up): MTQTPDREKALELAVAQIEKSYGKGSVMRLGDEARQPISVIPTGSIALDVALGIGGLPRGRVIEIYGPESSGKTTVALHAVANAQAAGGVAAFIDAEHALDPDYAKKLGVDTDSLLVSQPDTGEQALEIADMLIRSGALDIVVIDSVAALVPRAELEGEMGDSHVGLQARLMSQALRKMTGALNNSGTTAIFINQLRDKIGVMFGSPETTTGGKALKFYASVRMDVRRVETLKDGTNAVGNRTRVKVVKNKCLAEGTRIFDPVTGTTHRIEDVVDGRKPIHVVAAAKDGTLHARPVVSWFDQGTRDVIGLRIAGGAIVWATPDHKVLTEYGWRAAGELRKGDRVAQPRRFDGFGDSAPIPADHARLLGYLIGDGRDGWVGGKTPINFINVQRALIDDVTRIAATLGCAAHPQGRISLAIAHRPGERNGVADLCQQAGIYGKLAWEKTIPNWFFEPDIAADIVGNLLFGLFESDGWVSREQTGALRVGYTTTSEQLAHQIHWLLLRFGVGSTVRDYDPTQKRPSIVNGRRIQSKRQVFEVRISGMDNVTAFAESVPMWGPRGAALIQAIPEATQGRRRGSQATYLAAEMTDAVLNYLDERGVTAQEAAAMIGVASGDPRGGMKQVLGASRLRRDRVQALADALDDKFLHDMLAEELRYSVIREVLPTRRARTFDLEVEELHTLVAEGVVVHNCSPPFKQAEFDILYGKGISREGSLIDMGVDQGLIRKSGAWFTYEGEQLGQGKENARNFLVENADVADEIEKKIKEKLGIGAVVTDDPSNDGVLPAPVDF
# Mtb H37Rv: M. tuberculosis H37Rv growth inhibitors, H37Rv strain (AID 1626) | M. tuberculosis H37Rv growth inhibition; higher % means a stronger effect | inhibition, % at 10 µM, or IC50 in µM where a hit was titrated | 0.95% of 220,000 active;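 active means confirmed in a dose series; inconclusive means inhibition above 80% but not taken into the dose series; inactive means below 80% or under 30% at every dose of the series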;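 further: bacteria incubated seven days before Alamar blue readout; 0% = bacteria only wells and 100% = bacteria with antibiotic wells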
# Mtb bLac sens: beta-lactam sensitization of Mtb H37Rv, H37Rv. M. tuberculosis H37Rv growth with meropenem, percent inhibition; hits of this screen are not shown here. inhibition, % at 25 µM. 0.27% of 330,000 active;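 active means about 74% or more and at least 40 points above the plate without the antibiotic, then above 30% in a dose series; inconclusive means first-round hits that could not be retested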;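 further: growth measured after seven days incubation then overnight dye step; 0% = bacteria only wells and 100% = bacteria with antibiotic; twin plates without the antibiotic show which effects depend on it; some results filed as inactive read as strong as hits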
# Arbovirus anti: antivirals against arbovirus infection, primary screen, cell-based, full library, 10K replicate subset; arbovirus infection cell-based antiviral screen; 0.37% of 200,000 active; AID 1251, 2008; inhibition, % at 10 µM;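 active means inhibition from about 30%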;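 further: bluetongue infection of BSR cells; cell survival read as ATP light after 72 h; 0% = infected wells without compound and 100% = uninfected wells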
# YopH PTP inh: YopH tyrosine phosphatase inhibitors, primary screen, biochemical, fluorescence Ex485/Em525. YopH tyrosine phosphatase [Yersinia enterocolitica]. inhibition, %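 (about 10 µM by stock and volumes)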. 0.16% of 140,000 active;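 active means inhibition of 50% or more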;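 further: controls were vehicle for no effect and minimum signal wells for full effect; inactives centre near -20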
# Numbers without * were called inactive; ? = inconclusive; / = no result given.
# Field names: A = RecA intein inh; B = Mtb H37Rv; C = Mtb bLac sens; D = Arbovirus anti; E = YopH PTP inh
CCC(CC)c1nnc(NC(=O)CS(=O)(=O)c2ccc(C)cc2)s1
  A = -2.3	B = /	C = 2	D = /	E = /
COc1ccc(N2CCN(C(=O)c3cccc(NC4=NC5CS(=O)(=O)CC5S4)c3)CC2)cc1 (stereo not given)
  A = 0.0	B = /	C = ?	D = /	E = /
CCN(CC)C(=O)c1cc2c(=O)n3cccc(C)c3nc2s1
  A = -15	B = /	C = 2	D = /	E = /
O=C(N/N=C/c1ccccn1)c1cc(-c2cccc3ccccc23)n[nH]1
  A = 1.2	B = 3%	C = 70	D = -21	E = -23
Cc1nc2sc(C(c3ccccc3)N3CCOCC3)c(O)n2n1 (stereo not given)
  A = 0.3	B = -10%	C = 2	D = 4	E = -16
O=C(Nn1c(SCc2cccc([N+](=O)[O-])c2)nc2ccccc2c1=O)c1ccccc1
  A = 14	B = 3%	C = 1	D = 39*	E = -39
Cc1ccc(C(=O)N(Cc2nc3ccccc3c(=O)[nH]2)C2CCCC2)cc1
  A = 2.7	B = 4%	C = -2	D = -1	E = /
O=C1N(c2ccc(Cl)cc2)C(c2ccc(Cl)cc2)N2CCCN12 (stereo not given)
  A = 6.2	B = 3%	C = 3	D = 8	E = -24
CC(C)Cc1nnc(NC(=O)CN2C(=O)c3ccccc3C2=O)s1
  A = -1.8	B = -1%	C = -7	D = 1	E = /
O=C(Nc1ccc(F)cc1)C1CCN(C(=O)NCc2ccccc2)CC1
  A = 1.5	B = /	C = 0	D = /	E = /
CCc1ccc(C(=O)NN(C(=O)c2ccc(CC)cc2)C(C)(C)C)cc1
  A = 4.5	B = 11%	C = -6	D = -5	E = -4
O=C(c1ccc(N2CCCC2=O)cc1)N1CCOCC1
  A = -1.6	B = -9%	C = -10	D = 10	E = 32
CCN1CCN(Cc2ccc(NC(=O)c3ccc(C)c(NC(=O)c4ccno4)c3)cc2C(F)(F)F)CC1
  A = 1.9	B = 1%	C = -1	D = /	E = /
CS(=O)(=O)c1ccc(Cl)c(NC(=O)CSC(=S)N2CCCC2)c1
  A = 0.8	B = /	C = -5	D = /	E = /
Cc1ccc(N(C(C)C(=O)Nc2cc(Cl)ccc2Oc2ccccc2)S(C)(=O)=O)cc1 (stereo not given)
  A = /	B = 5%	C = 20	D = 2	E = -33
COc1ccc(Cl)cc1NC(=O)N1CCN(C2CCCCC2)CC1
  A = -0.8	B = 8%	C = -7	D = -5	E = -24
O=C(NCCCCc1ccccc1)C1CC(c2ccccc2[N+](=O)[O-])=NO1 (stereo not given)
  A = 2.0	B = 2%	C = 1	D = 6	E = -35
O=C(CCC(=O)N1CCOCC1)c1ccc(F)cc1
  A = 0.4	B = 0%	C = -5	D = 12	E = /
COc1ccc(CNC(=O)CN(c2ccccc2)S(=O)(=O)N(C)C)cc1
  A = 1.7	B = 0%	C = 2	D = 3	E = /
CCN(CC(=O)NCc1ccc(Cl)cc1)C(=O)CSc1ccc(Br)cc1
  A = 2.8	B = /	C = -6	D = /	E = /
COc1ccccc1NC(=O)CN1CCC(C(=O)c2ccc(F)cc2)CC1
  A = 4.1	B = -4%	C = -1	D = 7	E = 14
Cc1cc(C(=O)COC(=O)CN(C)S(=O)(=O)c2ccc(Cl)cc2)c(C)n1Cc1cccs1
  A = 2.2	B = 5%	C = 3	D = 0	E = -33
COc1ccc(OCCCN2CCCCCC2)cc1
  A = -2.4	B = 0%	C = -14	D = 13	E = -13
CC(NC(=O)c1ccncc1)c1ccccc1 (stereo not given)
  A = -3.0	B = /	C = 4	D = /	E = /
Cc1cc(=O)oc2c3c(cc(OCC(=O)Nc4cccnc4)c12)OC(C)(C)CC3
  A = -1.4	B = /	C = 4	D = /	E = /

# The final 2 records of the part before lead into the next.
# Field names: A = RecA intein inh; B = Mtb H37Rv; C = Mtb bLac sens; D = Arbovirus anti; E = YopH PTP inh
CC(NC(=O)c1ccncc1)c1ccccc1 (stereo not given)
  A = -3.0	B = /	C = 4	D = /	E = /
Cc1cc(=O)oc2c3c(cc(OCC(=O)Nc4cccnc4)c12)OC(C)(C)CC3
  A = -1.4	B = /	C = 4	D = /	E = /
CC[C@H](C)C(C(=O)N1CCN(C(=O)OC(C)(C)C)CC1)n1cc(C(CO)NC(=O)OC(C)(C)C)nn1 (stereo not given in full)
  A = -1.7	B = 7%	C = -8	D = 0	E = /
Cc1ccc(-c2ccccc2)n1-c1cccc(C(=O)O)c1
  A = 1.7	B = -8%	C = 2	D = /	E = /
CC(C)NC(=O)c1ccc(Sc2ccccc2)c([N+](=O)[O-])c1
  A = 5.3	B = 3%	C = 1	D = -12	E = -8
O=c1cc(CO)oc(CN2CCN(CCO)CC2)c1O
  A = -1.3	B = -10%	C = -13	D = -4	E = 8
COc1ccc(OC)c(C(c2nnnn2CC2CCCO2)N2CCN(C)CC2)c1 (stereo not given)
  A = -1.2	B = -4%	C = 4	D = 2	E = -40
CCOP(=O)(OCC)C(O)c1ccc2c(c1)OCO2 (stereo not given)
  A = -0.3	B = 1%	C = -2	D = /	E = /
CC(C)CNC(=O)CC(=O)N/N=C/c1cccs1
  A = 3.6	B = -6%	C = -2	D = 0	E = -18
COc1ccc(C(=O)N/C(=C\c2cn(S(=O)(=O)N(C)C)c3ccccc23)C(=O)N2CCN(C)CC2)cc1
  A = 4.0	B = /	C = -5	D = /	E = /
O=C(O)CN1C(=O)C(=O)N(Cc2cccc(F)c2)C1=O
  A = -2.3	B = /	C = 4	D = /	E = /
Cc1ccc(NC(=O)CNC(=O)c2cccs2)nc1
  A = 1.3	B = /	C = -6	D = /	E = /
C(=C\c1nnc(-c2cccs2)o1)/c1ccccc1
  A = -2.4	B = 6%	C = 9	D = 27	E = -21
COc1ccccc1CNC(=O)C(=O)NCC1OCCN1S(=O)(=O)c1ccc2c(c1)OCCO2 (stereo not given)
  A = 0.6	B = 6%	C = -3	D = -2	E = -36
O=c1ccn(Cc2ccccc2Cl)cc1
  A = 0.7	B = -11%	C = -2	D = 10	E = -3
CN(CC(=O)NCc1ccccn1)S(=O)(=O)c1ccccc1
  A = -4.0	B = 1%	C = -2	D = 10	E = -21
COCc1c(C(=O)N/N=C(/C)c2ccc(OCc3ccccc3)cc2)nnn1-c1nonc1N
  A = 1.1	B = /	C = 8	D = /	E = /
CC(C)(C)n1nnnc1C(c1cccc(C#N)c1)N1CCCCCC1 (stereo not given)
  A = 3.7	B = -11%	C = -1	D = 5	E = -4
COCCN(C(=O)CSc1nnc(-c2cccc(C)c2)n1C)c1c(N)n(Cc2ccccc2)c(=O)[nH]c1=O
  A = -2.2	B = 0%	C = -5	D = 5	E = /
Cc1ccc(C)c(N2CCN(c3ccc([N+](=O)[O-])cn3)CC2)c1
  A = 3.5	B = /	C = 5	D = /	E = /
CCCCCC(=O)N/N=C/c1cc(Br)c(O)c(OC)c1
  A = -0.7	B = 2%	C = -5	D = -1	E = 5
CCOC(=O)Cc1csc(NC(=O)COc2cc(C)cc(C)c2)n1
  A = -4.8	B = 2%	C = 4	D = 16	E = /
CC(=O)c1ccc(N2CCN(C(=O)c3cc4c(C)nc5ccccc5c4o3)CC2)cc1
  A = 0.4	B = /	C = 15	D = /	E = /
CCOC(=O)Nc1nc(C)c(C(=O)N(C)C)s1
  A = -1.6	B = -7%	C = -7	D = 8	E = 8
Cc1cccc2nc(-c3ccco3)c(Nc3ccc4c(c3)OCO4)n12
  A = 0.5	B = 9%	C = -4	D = 13	E = /
O=CN1CCN(CC(O)Cn2c3ccccc3c3ccccc32)CC1 (stereo not given)
  A = -2.2	B = /	C = 3	D = /	E = /
CCOCCCn1c(=NC(=O)c2cccs2)c(C#N)cc2c(=O)n3cccc(C)c3nc21
  A = -26	B = 6%	C = -10	D = /	E = /
Cc1cc(NC(=O)COc2ccc(Cl)cc2Cl)n(-c2ccccc2)n1
  A = 4.0	B = -15%	C = -4	D = 6	E = -2
O=C(O)CCCC[C@@H]1SC[C@@H]2NC(=O)N[C@@H]21
  A = -1.1	B = -14%	C = -4	D = /	E = /
CCn1c(=O)c2c(nc3n2CCCN3CCc2ccccc2)n(C)c1=O
  A = /	B = 7%	C = 6	D = 11	E = -31
COc1ccc(C(=O)NCC(=O)Nc2ccccc2)cc1OC
  A = -2.4	B = -4%	C = -8	D = 0	E = -18
C=CCNC(=O)N1CCCC(C(=O)c2cccc(OC(C)C)c2)C1 (stereo not given)
  A = -3.4	B = /	C = 6	D = /	E = /
Fc1ccc(/C=C\c2nccc3c2[nH]c2ccccc23)cc1
  A = -0.9	B = 9%	C = 5	D = -1	E = /
O=C(NC1CCCCC1)c1nn2c(C(F)(F)F)cc(-c3ccco3)nc2c1Br
  A = -3.8	B = 2%	C = -3	D = 6	E = -11
CNC(=O)NC(=O)Cn1nc2n(c1=O)-c1ccccc1SC2
  A = 2.3	B = -4%	C = -4	D = /	E = /
CSCCC(NC(=O)c1ccco1)C(=O)OCC(=O)Nc1ncc(Cl)c(C)c1Cl (stereo not given)
  A = -0.4	B = -2%	C = -9	D = 6	E = -66
Cc1nn(CCCC(=O)Nc2nccs2)c(C)c1[N+](=O)[O-]
  A = 1.9	B = -6%	C = -11	D = 4	E = /
CC(C)(C)c1ccc(/C=N/NC(=O)c2ccccn2)cc1
  A = 4.0	B = 61%	C = 98	D = -1	E = /
COc1ccc(OCC(=O)NNC(=O)c2cccc(S(=O)(=O)N(C)C)c2)cc1
  A = 3.6	B = -5%	C = 5	D = -2	E = -27
Cc1cnc(NC(=O)COc2cccc3c2OC(C)(C)C3)s1
  A = -2.5	B = -7%	C = 4	D = 14	E = 8
Cc1ccccc1CSCc1nc2ccccc2[nH]1
  A = 1.6	B = -12%	C = 2	D = 8	E = -20
Cc1ccc(S(=O)(=O)NCc2ccc(C(=O)NCc3cccnc3)cc2)cc1
  A = -3.1	B = 5%	C = -2	D = 15	E = /
CCN1CCN(CCOc2ccccc2OCc2ccccc2)CC1
  A = -2.1	B = 2%	C = 4	D = 0	E = /
COc1ccc([N+](=O)[O-])cc1NC(=O)C(C)Sc1ccc(C)cc1 (stereo not given)
  A = 4.4	B = -3%	C = 3	D = -4	E = -20
COc1ccccc1CCN1CCCC(CN(C)Cc2ccc(OCCO)cc2)C1 (stereo not given)
  A = 2.4	B = /	C = -12	D = /	E = /
O=C(Cc1ccc(S(=O)(=O)N2CCCC2)s1)N1CCN(c2ccccc2)CC1
  A = 0.1	B = -4%	C = -19	D = 10	E = /
O=C(OCc1ccc([N+](=O)[O-])cc1)c1ccccn1
  A = -1.5	B = 54%	C = 36	D = 2	E = /
Cc1c(OCc2ccc(C(=O)O)cc2)ccc2c(-c3ccccc3)cc(=O)oc12
  A = 3.1	B = -5%	C = /	D = /	E = /
COc1ccccc1N1CCN(Cc2ccc(OC)c(OC)c2OC)CC1
  A = -2.8	B = -7%	C = 4	D = 2	E = -22
Fc1ccccc1CSc1ccc(-c2ccco2)nn1
  A = 3.8	B = -3%	C = 0	D = -25	E = /
CC(=O)N1CCOc2ccc(S(=O)(=O)NCC3CCC(C(=O)NCCC(C)C)CC3)cc21 (stereo not given)
  A = -1.2	B = /	C = 4	D = /	E = /
COc1ccc2c(c1OC)C[N+]1([O-])CCc3cc4c(cc3C1C2)OCO4 (stereo not given)
  A = -0.7	B = 0%	C = -4	D = /	E = /
CC(=O)C1=C(O)C(=O)N(c2cccc(C(=O)O)c2)C1c1ccc(F)cc1 (stereo not given)
  A = -4.7	B = -5%	C = 2	D = -9	E = -37
O=C(c1cc2ccccc2cc1O)N1CCN(c2ccccn2)CC1
  A = -6.5	B = /	C = 2	D = /	E = /

# Copied from the list:
# `CCn1c(=O)c2c(nc3n2CCCN3CCc2ccccc2)n(C)c1=O` | Arbovirus anti: 11
# `Cc1ccc(S(=O)(=O)NCc2ccc(C(=O)NCc3cccnc3)cc2)cc1` | RecA intein inh: -3.1

# Structures shown so far that contain two or more sulfur atoms (five):
# Field names: A = RecA intein inh; B = Mtb H37Rv; C = Mtb bLac sens; D = Arbovirus anti; E = YopH PTP inh
CCC(CC)c1nnc(NC(=O)CS(=O)(=O)c2ccc(C)cc2)s1
  A = -2.3	B = /	C = 2	D = /	E = /
COc1ccc(N2CCN(C(=O)c3cccc(NC4=NC5CS(=O)(=O)CC5S4)c3)CC2)cc1 (stereo not given)
  A = 0.0	B = /	C = ?	D = /	E = /
CS(=O)(=O)c1ccc(Cl)c(NC(=O)CSC(=S)N2CCCC2)c1
  A = 0.8	B = /	C = -5	D = /	E = /
Cc1cc(C(=O)COC(=O)CN(C)S(=O)(=O)c2ccc(Cl)cc2)c(C)n1Cc1cccs1
  A = 2.2	B = 5%	C = 3	D = 0	E = -33
O=C(Cc1ccc(S(=O)(=O)N2CCCC2)s1)N1CCN(c2ccccc2)CC1
  A = 0.1	B = -4%	C = -19	D = 10	E = /

# Compound activity as filed in PubChem.

# Only part of the results is shown. The share of hits here may be higher or lower than overall.
